# Ecoli rRNA inh: reduced GFP signal of wild-type E. coli, primary screen, bacterial rRNA inhibitor project, GFP/RFP fluorescence, OD600, single point; E. coli WT GFP vs humanized-ribosome RFP mutants, 24 h; active compounds read low; DMSO median 0, no signal -100; GFP signal change (wild-type ribosome), % (concentration not given with the values); 350,000 compounds, 1.6% hits;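 active means significant combined selectivity score with lowered wild-type GFP, culture density cut under 30%, mutant RFP and density less affected; inactive means any of these conditions unmet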; further: one replicate is shown; some compounds called inactive have numbers as strong as hits
# Beta2AR agonist: beta2AR agonists driving receptor internalization, primary screen, cell-based, FAP fluorogen, flow cytometry. Beta-2 adrenergic receptor (Homo sapiens), P07550. Am2.2-beta2AR cells; reference of the scale not given here. response, % (concentration not given with the values). 340,000 compounds, 0.43% hits. AID 504454, 2011;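 active means response above a set limit, near 3 SD of response in nonfluorescent compounds, cut at about 42% in these data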;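 further: stock transfer was 100 nL into about 11 µL; a reference agonist was the positive control; negative values mostly stem from fluorescent compounds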
# Target sequence (P07550 whole entry, looked up): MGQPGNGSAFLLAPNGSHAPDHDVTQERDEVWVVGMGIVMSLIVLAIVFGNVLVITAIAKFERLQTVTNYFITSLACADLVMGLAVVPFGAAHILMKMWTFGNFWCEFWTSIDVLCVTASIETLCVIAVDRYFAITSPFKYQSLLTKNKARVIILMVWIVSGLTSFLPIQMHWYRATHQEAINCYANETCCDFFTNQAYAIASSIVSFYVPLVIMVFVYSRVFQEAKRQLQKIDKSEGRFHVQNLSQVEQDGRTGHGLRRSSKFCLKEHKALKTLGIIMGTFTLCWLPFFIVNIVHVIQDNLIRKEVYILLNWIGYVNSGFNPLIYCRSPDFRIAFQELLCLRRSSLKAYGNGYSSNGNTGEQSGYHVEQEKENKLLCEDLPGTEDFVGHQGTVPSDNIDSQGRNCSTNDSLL
# Ecoli rRNA inh OD600: recorded beside Ecoli rRNA inh, whose call it bears; OD600 change, %; measured here: OD600 growth;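 optical density of the mix in the first replicate; 0 = DMSO median and -100 = no signal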
# Ecoli rRNA inh RFP: recorded beside Ecoli rRNA inh, whose call it bears; RFP signal change, %; measured here: RFP humanized mutant strains;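 first replicate; 0 = DMSO median and -100 = no signal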
# Starred values were filed as active, the others as inactive; & = joins results of further samples. Only part of the results is shown. The share of hits here may be higher or lower than overall.
# Second line of a record – Ecoli rRNA inh, Ecoli rRNA inh OD600, Ecoli rRNA inh RFP, Beta2AR agonist
O=C(NCC(c1ccco1)N1CCCCC1)c1cccc(S(=O)(=O)Nc2ccc(F)cc2)c1 (stereo unspecified)
  3.2, -3.6, 7.9, 2.1
O=C1C(Cl)=C(NCCc2ccccc2)C(=O)c2ccccc21
  -37.2*, -28.7*, 9.3*, 16.6
N#Cc1ccc(CSc2ccc(S(=O)(=O)N3CCCCCC3)cn2)cc1
  0.8, -14.6, 0.9, 10.7
Cn1c(=S)c2[nH]c(SCCN)nc2n(C)c1=O
  4.9, 10.3, -0.7, -10.9
OCC1(CO)CCCC(CO)(CO)C1O
  16.2, 12.9, 0.6, 2.4
CN1CCOC1c1ccc(C2OCCN2C)cc1 (stereo unspecified)
  7.1, 15.5, -10.2, -2.0
O=C(O)C1=NN(c2cc(Cl)c(S(=O)(=O)O)cc2Cl)C(=O)C1
  14.2, 6.0, 1.2, -0.6
CC1CCN(C(=O)COC(=O)c2c[nH]c3ccccc23)CC1
  7.7, 2.9, 1.0, -0.2
CCOC(=O)C(C(=O)Cc1ccccc1)c1ccccc1 (stereo unspecified)
  0.1, -16.6, -3.8, 2.4
Cc1ccc(S(=O)(=O)N2C[C@@H]3[C@H]4CC[C@H](C4)[C@@H]3[C@@H](C)[C@@H]2c2cccn2Cc2ccccc2)cc1
  23.6, 17.3, 6.0, 2.5
N#CCCN(C(=O)COC(=O)c1cc2ccccc2oc1=O)c1ccccc1
  -1.1, -0.6, 1.1, 1.5
CCN1C[C@@H]2[C@@H]3C(=O)N(C)C(=O)[C@@H]3[C@](Cc3ccccc3)(C(=O)OC)N2C1=NC1CCCCC1
  2.0, -7.0, -2.7, -5.2
Cn1c(N)c(C(=O)COC(=O)c2cc(S(=O)(=O)NCc3ccccc3)ccc2O)c(=O)n(C)c1=O
  -47.0, -57.6, -6.0, 3.0
CCOC(=O)[C@@H](C)N(C(=O)OC(C)(C)C)S(=O)(=O)N(Cc1ccccc1)[C@H](C(=O)OC)C(C)C
  5.7, -9.7, -6.0, 11.7
CCN(CC)S(=O)(=O)c1ccc(NC(=O)COC(=O)CNC(=O)C2CCCCC2)cc1
  8.7, 5.8, 4.5, 2.2
OC1CCCC1NCc1ccnc2cc(Cl)ccc12 (stereo unspecified)
  0.9, 5.5, -2.6, -1.8
CN1CCN(C(=O)/C(C#N)=C/c2ccc(OC(F)F)cc2)CC1
  9.0, -1.3, -2.2, 2.6
C[C@H]1CN[C@H](CCO)/C1=C\c1ccccc1
  6.7, 3.3, -5.8, -6.9
CC(=NNC(=O)c1ccncc1)c1cccc(Cl)c1
  7.2, 1.0, 0.3, -0.4
COc1ccc(NS(=O)(=O)c2cccc(C(=O)NCC(c3ccc(OC)cc3)N3CCCCC3)c2)cc1 (stereo unspecified)
  4.6, -12.6, 25.9, 18.3

# Next section, starting with the last 3 of the part before.
# Second line of a record – Ecoli rRNA inh, Ecoli rRNA inh OD600, Ecoli rRNA inh RFP, Beta2AR agonist
C[C@H]1CN[C@H](CCO)/C1=C\c1ccccc1
  6.7, 3.3, -5.8, -6.9
CC(=NNC(=O)c1ccncc1)c1cccc(Cl)c1
  7.2, 1.0, 0.3, -0.4
COc1ccc(NS(=O)(=O)c2cccc(C(=O)NCC(c3ccc(OC)cc3)N3CCCCC3)c2)cc1 (stereo unspecified)
  4.6, -12.6, 25.9, 18.3
CC(C)Cn1c(SCC(=O)N2CCOCC2)nc2ccccc2c1=O
  4.2, -3.1, 1.6, -6.0
Cc1ccc(NS(=O)(=O)N2CCCCC2)cc1
  4.7, 7.5, 1.9, -5.6
CN(Cc1ccccc1)C(=O)c1cccc(NC(=O)Cc2ccc(NC(=O)C3CCCN(C(=O)C4CC4)C3)cc2)c1 (stereo unspecified)
  -7.2, -2.3, 5.2, -0.5
CC(C)Cc1nnc(N)s1
  4.3, 13.4, -0.5, -1.4
CC(C)C[C@H]1CNC(=S)N1CC1CCN(CC2CCC(C(C)(C)C)CC2)CC1 (stereo partly specified)
  -7.6, -10.1, 0.3, 2.1
Cc1ccc(C)n1-c1ccc(-c2ccnc(N)n2)cc1
  6.8, -10.1, -3.5, 8.6
C[C@H](CO)N1C[C@H](C)[C@@H](CN(C)S(=O)(=O)c2ccc(F)cc2)Oc2ccc(NC(=O)c3ccncc3)cc2C1=O
  -0.1&-3.1, 1.9&-0.1, -1.0&2.4, -7.9
COc1ccc(C(OC(=O)c2ccco2)C(=O)NC(C)(C)C)cc1OC (stereo unspecified)
  -3.3, 4.0, 0.7, -7.1
CC(C)(C)OC(=O)N1CCC(C(=O)Nc2cccc(C(=O)NCCc3ccccc3)c2)CC1
  2.3, 6.0, 0.1, 2.3
O=C(Nc1c(Br)cc2c(c1Br)Cc1ccccc1-2)C(Cl)Cl
  3.2, 11.3, 1.9, -0.2
COC(=O)[C@]1(C)N[C@H](CN(C)C(C)=O)[C@@H]2C(=O)N(Cc3ccccc3)C(=O)[C@@H]21
  3.5, 8.5, -0.6, 3.1
[O-]/[N+](=N\Nc1ccc(Cl)cc1)c1ccccc1
  1.4, 3.9, -3.1, 3.5
CCN(CC(=O)Nc1c(F)cccc1F)C(=O)c1ccc(OCC(=O)N2CCOCC2)c(OC)c1
  0.6, 5.6, -2.6, -8.2
COc1ccc(NC(=O)N(C)C[C@H]2Oc3ccc(NS(=O)(=O)c4ccccc4)cc3C(=O)N([C@H](C)CO)C[C@@H]2C)cc1
  0.4, 23.0, -1.0, 1.8
CCc1nc2ccccc2c(C(=O)OCC(=O)N(CCOC)c2c(N)n(Cc3ccccc3)c(=O)[nH]c2=O)c1C
  -10.1, -12.1, 1.8, 5.5
COC(=O)[C@]1(Cc2ccccc2)N[C@H](CN(C)C(=O)c2ccccc2)[C@@H]2C(=O)N(C)C(=O)[C@@H]21
  3.6, 7.7, -2.4, -7.9
CN(C)CCCn1c2c3ccccc3ccc2c2oc(=O)c3ccccc3c21
  68.8, -76.8, -17.4, 42.9*
CC1=CC(=O)[C@@H](OC(=O)Nc2ccc(C)cc2)[C@@H](c2ccccc2Br)N1C
  2.9, -0.1, 0.7, -1.6
COC(=O)c1ccc(C)cc1
  -4.5, -4.8, -6.0, -0.9
COc1ccc(S(=O)(=O)N2CCN(Cc3cc4c(cc3Br)OCCO4)CC2)cc1
  -2.8, -9.6, -7.2, -7.1
Cc1cccc(NC(=O)CN(C)C(=O)/C=C/c2ccccc2)c1C
  -6.4, -0.2, -5.3, 1.2
CC(C)(C)CC(C)(C)SSc1n[nH]c(=S)s1
  5.8, 7.6, -0.7, -16.8
Cc1cccc2c1CCCC2=O
  8.5, 12.0, 2.6, 1.4
CC1(C)CC(=O)C2=C(C1)N(c1ccccc1)C(=O)C(C(=O)OCc1ccccc1)C2 (stereo unspecified)
  -16.1, -8.9, -0.9, -8.9
COc1cc(/C=C/C(C)=NNc2ccccc2)ccc1O
  4.2, -10.8, 0.9, 3.6
COCCN(C(=O)CSc1nnc(-c2ccncc2)n1C)c1c(N)n(CC(C)C)c(=O)[nH]c1=O
  6.8, 16.9, 1.5, -0.8
O=S(=O)(CC(O)(c1ccccc1)c1ccccc1)CC(O)(c1ccccc1)c1ccccc1
  -0.5, 18.1, 26.5, -0.6
O=[N+]([O-])c1ccc(NN=Cc2ccc(O)cc2O)nc1
  -21.7*, -29.2*, -4.2*, 2.7
O=C(Nc1cccc(C(=O)N2CCCCC2)c1)C1CCCCC1
  22.0, 7.9, 1.7, -11.4
Nc1c(Cl)cc(N=Nc2ccccc2)cc1Cl
  -9.1, -22.3, -6.8, 1.9
CCOc1ccc(NS(=O)(=O)c2cccc(C(=O)NCC3(N(C)C)CCCCC3)c2)cc1
  -7.1, -4.6, 3.0, 7.6
O=c1cc(Br)c(O)c(Br)cc1Br
  15.8, 17.8, 1.2, -7.3
CCCCc1ccc(NC(=O)CN2C(=O)NC(Cc3ccccc3)C2=O)cc1 (stereo unspecified)
  5.5, 11.2, 0.4, -6.3
O=c1c(=NNc2ccccc2Cl)c(=O)c2ccccc12
  13.2, -6.2, -1.9, -3.2
Cc1ccsc1C(=O)N(C)CC(=O)Nc1ccccc1Br
  -2.1, -6.0, -0.8, -9.7
CC(=O)C1(O)C(C)CC2C3CC(F)C4(O)CC(O)CCC4(C)C3CCC21C (stereo unspecified)
  -4.3, -7.8, 5.8, 2.3
O=C(C1CC1)N1CCc2cc(Br)c(S(=O)(=O)N3CCCCCC3)cc21
  -18.7, -47.0, 0.0, -15.3
O=S(=O)(NC1CC1)c1ccc(Br)cc1N1CCC[C@H]1CO
  -3.9, -1.0, -4.0, -3.4
O=C(CN1C(=O)c2ccccc2C1=O)NC(Cc1ccccc1)C(=O)O (stereo unspecified)
  14.4, 10.6, -1.5, 0.2
C/C(C/C(C)=C1/SC(=S)NC1=O)=C1\SC(=S)NC1=O
  9.6, 6.2, 3.3, -1.3
COc1ccc(-c2csc(C(C#N)=C(O)CSc3nccn3C)n2)cc1OC
  -4.7, 1.5, 6.5, 6.1
CCN(CC)C(=O)[C@H]1CC(CC(=O)NCCCn2ccnc2)C(=O)N2CCc3c([nH]c4ccc(OC)cc34)[C@]12C (stereo partly specified)
  9.8, 5.8, -1.6, -11.0
CCOC(=O)/C(C#N)=C1/C(=O)N(Cc2ccccc2)c2ccccc21
  6.3, -3.8, 2.7, 2.8
O=C(O)CCc1ccc(S(=O)(=O)Nc2cc(C(F)(F)F)ccc2N2CCCC2)cc1
  2.5, 8.2, -1.1, -0.9
CC1(C(=O)OCC(=O)Nc2cc(S(=O)(=O)N3CCOCC3)ccc2Cl)CC1(Cl)Cl (stereo unspecified)
  -2.9, -17.7, -2.1, 2.4
COc1ccc(CNC(=O)C[C@H]2C[C@H](C(=O)N(C(C)C)C(C)C)[C@@]3(C)c4[nH]c5cc(CCC(=O)N(C)C)ccc5c4CCN3C2=O)cc1OC
  0.9, 9.6, -3.7, -0.1
Nc1ccc(S(=O)(=O)NCC2CCCCO2)cc1 (stereo unspecified)
  13.9, 12.8, 1.8, -1.7
O=S(=O)(c1ccccc1)N1N=C(c2ccc(Cl)cc2)CC1c1ccco1 (stereo unspecified)
  -5.1, -3.7, 4.3, 21.4
COc1ccccc1CNS(=O)(=O)c1cc(C(=O)NCc2ccccn2)c(Cl)cc1Cl
  -11.7, -19.0, 3.0, 2.5
c1ccc(COc2ncnc3c2ncn3CCCNCCN2CCOCC2)cc1
  22.0, 12.2, -1.4, -3.5
Cc1cc(O)c(C(C)C)cc1N=Cc1ccc(N(C)C)cc1
  -10.6, 4.7, 0.7, 3.3
CC[C@]12c3[nH]c4cc(-c5ccco5)ccc4c3CCN1C(=O)[C@@H](CC(=O)NCC13CC4CC(CC(C4)C1)C3)C[C@@H]2C(=O)N1CCN(C(=O)c2ccco2)CC1
  8.3, 12.4, 6.6, 12.2
O=c1[nH]cc(CN2CCOCC2)c(=O)[nH]1
  12.3, 6.8, -1.6, -1.7
NC1=C(Cl)C(=O)c2ccccc2C1=O
  -56.8, -77.1, -20.6, 3.2
O=C(CCCN1C(=O)NC2(CCCC2)C1=O)Nc1cccc(S(=O)(=O)N2CCOCC2)c1
  5.3, 10.5, 3.4, -9.3
O=C1CCCc2cc3c(ccc4ccccc43)cc21
  -11.1, -11.1, 6.8, 4.3
Nc1nccc(NCCSCc2ccccc2)n1
  6.1, -4.9, -1.4, 3.2
COc1ccc(CCN2CC(C(=O)N(C)CC(=O)Nc3ccc(Cl)c(C(F)(F)F)c3)CC2=O)cc1OC (stereo unspecified)
  -14.9, -25.5, -4.5, -2.2
Cc1ccc(S(=O)(=O)N2CCOCC2)cc1C(=O)NCc1ccccn1
  8.8, 5.9, -1.7, 6.8
Nn1c(SCC(=O)NCC2CCCO2)nnc1-c1cc(Cl)ccc1Cl (stereo unspecified)
  0.7, -4.3, -2.4, 0.3

# Additional compounds:
# Second line of a record – Ecoli rRNA inh, Ecoli rRNA inh OD600, Ecoli rRNA inh RFP, Beta2AR agonist
COc1ccc(-c2noc(CCC(=O)N3CCN(c4ccccc4C(F)(F)F)CC3)n2)cc1
  0.2, -19.1, -2.6, 1.9
Cc1cc(C)c2c(=O)[nH][nH]c2n1
  7.5, 6.5, 3.3, 4.5
CC1CC2OC2CC1COC(=O)C1CC2OC2CC1C (stereo unspecified)
  11.5, 13.4, 1.2, 1.9
CCCCN(C(=O)c1cc(S(=O)(=O)N2CCCCC2)ccc1Cl)c1c(N)n(CC(C)C)c(=O)[nH]c1=O
  9.7, 7.3, -6.1, 24.8
C[C@H](NC(N)=O)C(=O)Nc1ccc(N2CCOCC2)c(S(=O)(=O)Nc2ccc(Cl)cc2)c1
  6.5, 4.6, 0.7, -3.2
CCOC(=O)c1c(N/C=C(\C#N)c2nc(-c3ccc(OC(C)=O)cc3)cs2)sc2c1CCC2
  15.2, 4.1, -3.3, 5.7
Cc1ccc2c(c1C)C(=O)C(=O)N2
  -7.9, 0.5, 7.4, -13.2
OCC1OCOC2C(CO)OCOC12 (stereo unspecified)
  1.6, 2.0, -4.9, -15.3
COc1ccc(-c2noc(CCC(=O)N3CCN(c4cccc(C)c4C)CC3)n2)cc1
  3.7, -10.8, -0.2, -2.7
CCC1=C(c2ccc(OC)cc2)CCC(C(=O)O)C1C (stereo unspecified)
  -14.8, -45.5, -9.3, -14.8

# Assay outcomes: PubChem BioAssay, several laboratories
